Bioassay records (PubChem)
gsp antag – antagonizes gsp, the McCune-Albright syndrome mutation. AID 624288. 0.4% of 340,000 active. gsp-mutant cells, cAMP HTRF, 30 min; control for the full effect not named in the record. Potency, µM (doses to about 76.9 µM), without a hit: at the highest dose activity change, negative = inhibition, actives largely listed as inhibitors; active = falling curve of any shape with a large fitted effect; inconclusive = falling curve, mostly with a smaller effect; inactive = flat or rising curve; cell line not stated here;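 also: intracellular cAMP measured with PDE inhibitor Ro 20-1724 present during compound exposure; potency is read from the fitted curve at half-maximal effect; % is scaled to controls: 0 for no effect and ±100 for the full control effect; nearly all actives have a fitted effect of over 65% in size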
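Measurement of cellular cAMP by homogeneous time-resolved fluorescence following a 30 min compound exposure at 37C. The PDE inhibitor […] was present throughout; the assay buffer was DPBS with 0.05% BSA and 0.005% Tween 20.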
TRPV1 potentiator – human TRPV1 potentiation | Q8NER1 | TRPV1-expressing cells, Fluo-8 calcium influx, capsaicin EC20 potentiation; host cell line not named in the record; control for the full effect not named in the record | potentiation, % at 8.33 µM | 0.02% of 320,000 active; active means potentiation above 80%; inconclusive means 30% to 80%; inactive means below 30%; also: 0% is about no effect
Target sequence (Q8NER1 whole entry, looked up): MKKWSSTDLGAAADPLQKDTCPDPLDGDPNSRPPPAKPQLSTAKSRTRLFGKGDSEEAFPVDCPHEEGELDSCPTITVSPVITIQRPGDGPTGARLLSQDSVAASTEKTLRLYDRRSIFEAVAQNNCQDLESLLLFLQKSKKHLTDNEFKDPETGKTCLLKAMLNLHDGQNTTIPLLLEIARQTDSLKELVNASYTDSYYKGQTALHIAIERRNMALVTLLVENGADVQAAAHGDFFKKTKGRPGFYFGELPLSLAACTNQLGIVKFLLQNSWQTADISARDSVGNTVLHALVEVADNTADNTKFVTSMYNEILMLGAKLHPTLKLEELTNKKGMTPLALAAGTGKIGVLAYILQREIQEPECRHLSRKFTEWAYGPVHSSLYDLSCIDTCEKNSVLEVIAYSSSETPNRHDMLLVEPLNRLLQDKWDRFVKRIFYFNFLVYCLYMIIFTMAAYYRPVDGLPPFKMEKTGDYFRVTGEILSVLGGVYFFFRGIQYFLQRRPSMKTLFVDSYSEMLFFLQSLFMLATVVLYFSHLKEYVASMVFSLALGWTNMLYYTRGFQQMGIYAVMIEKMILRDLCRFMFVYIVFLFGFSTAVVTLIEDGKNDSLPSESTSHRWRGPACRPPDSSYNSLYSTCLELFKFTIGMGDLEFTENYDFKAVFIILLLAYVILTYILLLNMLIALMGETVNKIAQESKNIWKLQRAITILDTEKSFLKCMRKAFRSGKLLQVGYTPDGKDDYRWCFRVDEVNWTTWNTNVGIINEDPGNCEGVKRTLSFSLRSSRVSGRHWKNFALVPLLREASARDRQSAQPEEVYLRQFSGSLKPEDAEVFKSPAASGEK
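Fluo-8 calcium influx in TRPV1-expressing cells, kinetic read (ex 480/em 520 nm). Compound added and read 3 min for agonist activity, followed by capsaicin at EC20 final and 2 min further read for enhancement.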
gsp ag – activates gsp, the McCune-Albright syndrome mutation | gsp mutant cells, cAMP HTRF, 30 min; control for the full effect not named in the record | AID 624287 | 0.13% of 340,000 active | Potency, µM (highest dose often 76.9 µM), without a hit: at the highest dose activation (cAMP increase), most hits filed as activators; active = well fitted activation curve with a large enough effect; inconclusive = small, poorly fitted or top-dose-only effect, or another doubt; inactive = no such curve, though single readings can be large or run the other way; cell line not stated here;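 also: phosphodiesterase inhibitor Ro 20-1724 added with compounds to block cAMP breakdown; potency is read from the fitted curve at half-maximal effect; nearly all actives have a fitted effect of over 60% in size; about a fifth of the inactives were tested at one dose only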
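Cells stably selected in G418 were plated at 2000/well, grown 16-24 hr, then given compounds in DMSO with the PDE inhibitor […] (300 uM solution added) for 30 min at 37C; cAMP was read by HTRF.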
Menin-MLL FL inh – inhibitors of human menin-MLL interaction, wild-type MLL peptide. AID 1766. 290,000 tested, under 10 active. Fluorescence polarization, fluorescein-MLL peptide displacement from menin. FP activity change, % at 61.4 µM; inconclusive = falling polarisation curve, or a change in total fluorescence; inactive = total fluorescence flat and polarisation flat or rising; no compound was filed as active; the % refers to the polarisation; negative = inhibition;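 also: % of control where 0% means no effect; inhibitors lower the polarisation; unlabelled MLL peptide was the positive control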
ClpP mod – qHTS Assay for Activators of ClpP; ATP-dependent Clp protease proteolytic subunit (Bacillus subtilis (strain 168)), P80244; purified B. subtilis ClpP, FRET peptide cleavage, 20 min; Potency, µM (doses to about 57.5 µM), inactives show at the top dose activity change, negative = active; 1.9% of 340,000 active; AID 651965, 2013; active = well fitted falling curve with a large enough effect; inconclusive = small, poorly fitted or top-dose-only effect; inactive = no such curve, though single readings can be large or run the other way; also: potency is read from the fitted curve at half-maximal effect; the source files actives as falling curves though it sought activators and does not explain the sign; nearly all actives have a fitted effect of over 65% in size; many hits overshoot -100%
Target sequence (P80244 whole entry, looked up): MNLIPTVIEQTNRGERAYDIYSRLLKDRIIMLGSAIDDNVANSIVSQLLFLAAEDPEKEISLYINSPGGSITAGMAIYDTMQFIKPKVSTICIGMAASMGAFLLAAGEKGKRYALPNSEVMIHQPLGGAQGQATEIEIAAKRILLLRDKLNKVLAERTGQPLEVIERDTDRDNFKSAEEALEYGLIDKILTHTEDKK
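FRET quenching reversal measured ClpP activation: 10 microg/mL B. subtilis ClpP at pH 8 with the FRET-FV decapeptide, read at 430 nm after 320 nm excitation. The 20-min minus 0-min signal was scaled between DMSO/no-enzyme wells and ADEP (5.8 microM final).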
CtBP-E1A blk – CtBP/E1A binding inhibition | AlphaScreen GST-E1A/His-CtBP binding, 1536-well; stronger effect = lower value; control for the full effect not named in the record | activity change, % (test concentration not listed) | 0.49% of 340,000 active; in the data active means activity change below about -65%; inconclusive means about -30% to -65%; inactive means above about -30%; also: % is scaled to controls: 0 for no effect and ±100 for the full control effect; compound concentration not given in the record
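AlphaScreen with 125 nM GST-E1A and 125 nM His-CtBP (5X stocks) in Tris pH 8.0, 300 mM NaCl, BSA, Tween 20, TCEP. Compounds preincubated 2 h at 37 deg C, then glutathione donor/nickel acceptor beads added for 1 h at 37 deg C in dark.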
Sfp PPTase inh – Sfp phosphopantetheinyl transferase inhibition | Q9F4F7 | Biochemical Sfp PPTase activity, qHTS | Potency, µM, for the others: max response, negative = inhibition, most hits filed as inhibitors | 3.5% of 310,000 active | AID 1490; active = well fitted inhibition curve with a large enough effect; inconclusive = small, poorly fitted or top-dose-only effect, or another doubt; inactive = no such curve, though single readings can be large or run the other way;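 also: the enzyme is Sfp with the accession as filed and its product quenches rhodamine fluorescence; potency is read from the fitted curve at half-maximal effect; 0% = enzyme reaction without inhibitor and -100% = no enzyme wells; top concentration of the series not given in the record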
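Fluorescence-quenching assay: 15 nM Sfp-PPTase preincubated 15 min at room temperature with compound, then 5 uM rhodamine-CoA and 12.5 uM BHQ-2-labelled YbbR peptide added. Fluorescence (ex 525/em 598 nm) read at start and after 30 min; difference gives rate.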
* hit, by the source's call; ? = inconclusive; / = no result given; [ ] = remark or other dose.

Values run as follows: gsp antag	TRPV1 potentiator	gsp ag	Menin-MLL FL inh	ClpP mod	CtBP-E1A blk	Sfp PPTase inh
- CCOc1ccccc1Nc1nc(-c2cccnc2)cs1
  -18%	9	9%[15.4 µM]	2.0	?	-2	-4%
- Cc1ccc(NS(=O)(=O)c2ccc(C(=O)NCCCN3CCCC3=O)cc2)cc1
  9%	-1	?	/	-20%	0	/
- COc1ccc(C2(O)C(=O)Nc3ccc(C)cc32)cc1 (configuration not stated)
  13%	11	6%[15.4 µM]	3.1	?	1	6%
- COc1ccc(N=C2C(=O)Nc3c(C)cccc32)cc1
  -6%	7	0%	2.2	0.8%	7	9%
- c1ccc(-n2cnnc2SCc2nc3ccccc3s2)cc1
  15%	15	-12%	8.5	-2.9%	-7	?
- CC(=O)c1cccc(NC(=O)N2CCC(NC(=O)C3CCCCC3)CC2)c1
  14%	-18	-4%[15.4 µM]	-1.6	-0.7%	-3	9%
- COc1ccc(-c2nc(N)nc(N)n2)c(O)c1
  9%	-23	7%	/	-8.7%	-26	/
- Cc1ccc(Nc2nc(N)nc(CSc3nc(C)cc(C)n3)n2)cc1
  18%	16	1%	-2.1	-2.4%	-5	-2%
- CSc1ncccc1C(=O)OCC(=O)c1ccc(S(=O)(=O)N2CCCCC2)cc1
  -14%	17	-11%	/	-1.4%	-9	/
- CCCNC(=O)COc1nc2ccccc2nc1N1CCOCC1
  3%	8	?	2.7	-1.4%	-5	17%
- CCOc1ccc(OCCOCCN2CCCC2)cc1
  3%	10	-53%[inhibitor]	-0.3	-0.3%	/	?
- CC1=C/C(=C(\c2ccc(O)c(C)c2)c2ccccc2S(=O)(=O)O)C=CC1=O
  0%	25	-3%	?	/	-3	18%
- COc1cccc(CCNC(=O)CCc2nnc(-c3ccc4c(c3)OCO4)o2)c1
  -2%	3	-9%	/	-17%	3	29%
- CCOC(=O)C1CCCN(C(=O)c2ccc(S(=O)(=O)NCc3ccco3)cc2)C1 (configuration not stated)
  1%	3	0%	/	-3.2%	0	/
- COC(=O)c1nn(-c2cccc(C)c2)c2nnc(Cc3ccccc3)c(=O)n12
  -8%	-8	-32%[inhibitor]	-0.1	0.6%	1	17%
- Cc1ccc2nc(SCC(=O)NCCCN3CCCC3=O)[nH]c2c1
  1%	7	-138%[inhibitor]	/	2.5%	2	/
- COc1ccc(Cl)cc1S(=O)(=O)Oc1ccc(NC(C)=O)cc1
  3%	-9	-2%	5.5	-3.5%	-3	-1%
- CC1Cc2nc(SCC(=O)Nc3ccc(F)cc3F)n(C)c(=O)c2S1 (configuration not stated)
  -6%	3	-30%[inhibitor]	0.3	1.5%	12	6%
- CCCCNC(=S)Nc1ccc(-c2nc3ccc(C)cc3s2)cc1
  10%	15	29%	0.4	?	1	12%
- CCCCC(CC)C(=O)Nc1ccc(Nc2ccccc2)cc1 (configuration not stated)
  ?	-2	-49%[inhibitor]	0.4	-11%	-14	22%
- CC1CCc2sc(C(=O)OC(C)C(=O)Nc3ncc(Cl)cc3Cl)cc2C1 (configuration not stated)
  /	2	/	-7.2	/	/	-16%
- CSc1ccccc1NC(=O)c1cc(-c2ccc3c(c2)OCO3)on1
  1%	5	20%[15.4 µM]	-5.3	-0.1%	0	-1%
- Cc1cc(C)c(OCCCNC2CCCC2)c(Br)c1
  11%	12	5%	0.1	1.8%	-10	-29%
- CCN(CC)C(=O)CSc1nnc2c3ccccc3n(C)c2n1
  -9%	2	7.1µM*	0.6	/	-3	0%
- O=C(CSc1nccn(-c2cccc(F)c2)c1=O)Nc1ccc(Cl)cc1F
  8%	5	-1%[15.4 µM]	4.6	0.7%	-2	-19%
- O=CN1CCN(C(=O)c2ccc(Br)o2)CC1
  6%	-11	?	-7.2	0.0%	0	20%
- CN(CC(=O)Nc1ccc(N2CCOCC2)cc1)C(=O)CSc1ccc(F)cc1
  3%	-23	-43%[inhibitor]	/	-2.5%	-13	/
- CNC(=S)N(CCc1c(C)[nH]c2ccc(OC)cc12)Cc1cc(OC)c(OC)c(OC)c1
  -22%	-6	36%	4.9	-7.0%	-16	-9%
- CCCCN(C(=O)c1cc2c(s1)CCC2)c1c(N)n(CCC)c(=O)[nH]c1=O
  -8%	8	15%	/	0.7%	10	/
- Cc1ccc(S(=O)(=O)N(Cc2c(F)cccc2Cl)C(=O)N2CCN(C)CC2)cc1
  0%	-4	-3%[15.4 µM]	/	-0.9%	-3	/

Values run as follows: gsp antag	TRPV1 potentiator	gsp ag	Menin-MLL FL inh	ClpP mod	CtBP-E1A blk	Sfp PPTase inh
- COc1ccccc1NC(=O)N(C)C[C@H]1Oc2ncc(Br)cc2C(=O)N([C@H](C)CO)C[C@H]1C
  /	/	1%	/	-1.7%	6	/
- COc1cc(OC)c2cc(C(=O)N[C@@H](Cc3ccccc3)C(=O)O)n(C)c2c1
  4%	4	8%	8.7	/	-4	0%
- O=C(NC1CCCC1)C(c1ccc(N2CCOCC2)cc1)N(Cc1ccco1)C(=O)c1ccco1 (configuration not stated)
  -8%	-15	16%	2.4	-9.5%	0	0%
- CCOCCCN1CC(=O)N2[C@@H](Cc3c([nH]c4ccccc34)C2(C)C)C1=O
  9%	5	-2%[15.4 µM]	1.8	-1.8%	1	10%
- CC(C)OC(=O)c1c(-c2ccc(C(C)C)cc2)csc1NC(=O)C1CCCO1 (configuration not stated)
  -19%	8	16%	3.0	-6.1%	-1	8%
- Cc1ccc2[nH]c3c(N4CCN(Cc5ccccc5)CC4)ncnc3c2c1
  16µM*	-16	-14%	2.2	?	-13	-7%
- CN(C)c1ccc(NC(=O)c2ccc(COc3cccc(Cl)c3)o2)cc1
  -10%	4	15%	8.3	0.9%	?	?
- O=C(c1ccc([N+](=O)[O-])cc1[N+](=O)[O-])n1cnc2ccccc21
  -6%	13	?	0.1	3.3%	/	79µM*
- N#Cc1ccc(N2CCN(c3ccc(F)cc3)CC2)cc1
  9%	6	-26%	6.8	?	0	13%
- Cn1cnnc1SCC(=O)c1ccc(OC(F)F)cc1
  -4%	-1	27%	-0.1	0.0%	5	-2%
- O=S(=O)(c1ccc2c(c1)OCCO2)N1CCC(c2nc3ccccc3s2)CC1
  -14%	25	-1%	-0.2	2.4%	5	5%
- O=c1[nH]c2ccc(S(=O)(=O)N3CCCCC3)cc2[nH]1
  5%	?	-35%	5.2	0.3%	-2	-3%
- Cc1nn(-c2ccccn2)c2c1C(c1ccncc1)C1=C(CC(C)(C)CC1=O)N2 (configuration not stated)
  -9%	-1	-20%	?	32µM*	-16	-3%
- O=C1NC(c2ccccc2)=C(c2nc3ccccc3s2)C(c2ccc(O)cc2)N1 (configuration not stated)
  -2%	4	-57%[inhibitor]	8.5	-3.5%	-3	-28%
- COCCCNC(=S)Nc1cccc2ncccc12
  6%	6	-16%[15.4 µM]	-8.2	/	-13	-14%
- O=C(NNC(=O)c1ccc2c(=O)n3c(nc2c1)CCC3)c1cccc(Cl)c1
  2%	4	-11%	/	-5.5%	?	/
- COc1ccc(-c2csc(Nc3cc(C)ccn3)n2)cc1C
  -5%	-8	-10%	-2.2	-2.6%	/	-5%
- CCCN1CCN(CCCNC(=O)CCCn2nc(C)c3sc4ccccc4c3c2=O)CC1
  6%	-11	4%	-1.4	?	/	12%
- COC(=O)c1ccc(Cn2cnc3c(cnn3-c3ccc(C)c(C)c3)c2=O)o1
  -7%	25	-56%	1.2	-18%	-21	3%
- CCOCCCNC(=O)c1ccc(N2CCOCC2)c(NS(=O)(=O)c2ccc(OC)cc2)c1
  -4%	27	-16%	2.0	-3.3%	/	-8%
- NC(=O)c1c(NC(=O)c2ccc([N+](=O)[O-])o2)sc2c1CCCC2
  4%	-13	19%[15.4 µM]	-0.7	-6.4%	-1	-3%
- Cc1ccc(Cl)cc1N1C(=O)CC(Sc2ncccn2)C1=O (configuration not stated)
  3%	-1	-43%	-2.9	-1.6%	/	-6%
- C#CCOCCOCCOCCNc1nc(N2CCN(C(=O)[C@H](CCCN=C(N)N)n3cc(C(N)[C@@H](C)CC)nn3)CC2)nc(N2CCN(C(=O)[C@H](CCC(=O)O)n3cc([C@@H](N)CC(N)=O)nn3)CC2)n1 (some centres not stated)
  0%	/	/	/	0.2%	-26	/
- O=C(CSc1nc2ncccc2[nH]1)NC1CCCCC1
  12%	-6	29%	0.4	/	7	?
- Cc1cccc(N2CCN(C(=O)C(NS(=O)(=O)c3cccs3)c3ccccc3)CC2)c1C (configuration not stated)
  -7%	1	0%	13	-3.1%	-5	3%
- COc1ccccc1OCCNc1ccc(S(=O)(=O)N2CCCC2)cn1
  3%	?	12%[15.4 µM]	/	/	7	/
- COC(=O)N1[C@H](C)C=C[C@]1(Cc1ccccc1)C(=O)NCCCNc1ncc(C(F)(F)F)cc1Cl
  -1%	/	/	2.1	-5.4%	-28	18%
- COc1cc(Br)cc2cc(C(=O)N3CCCCC3C)c(=O)oc12 (configuration not stated)
  -7%	-11	-15%	-2.9	4.0%	-11	2%
- COc1ccccc1N1CCN(C(=O)c2cccc(C(=O)N3CCN(c4ccccc4OC)CC3)c2)CC1
  -18%	-12	-30%[inhibitor]	2.1	/	1	17%
- Nc1cccc(-c2nc3ccccc3[nH]2)c1
  -9%	29	30%	0.2	63%	6	-7%
